CtBP-E1A blk = CtBP/E1A binding inhibition | AlphaScreen GST-E1A/His-CtBP binding, 1536-well; active compounds read low; control for the full effect not named in the record | activity change, % (concentration not given with the values) | 340,000 tested, 0.49% active | AID 651724; in the data active means activity change below about -65%; inconclusive means about -30% to -65%; inactive means above about -30%; note: % is set by controls: 0 for no effect and ±100 for the full control effect
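GST-E1A and His-tagged CtBP (125 nM each as 5X stock) were preincubated with pin-transferred compound for 2 h at 37 °C in the dark, then glutathione donor and nickel acceptor beads were added for 1 h before AlphaScreen reading.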
Six1-Eya2 blk = inhibitors of human Six1/Eya2 interaction. 360,000 tested, 0.56% active. activity change, % (concentration not given with the values). AID 651725. AlphaScreen GST-Six1/His-Eya2 binding, biochemical; active compounds read low; control for the full effect not named in the record; in the data active = activity change below about -65%; inconclusive = about -30% to -65%; inactive = above about -30%; note: % is set by controls: 0 for no effect and ±100 for the full control effect
Target sequence (O00167 whole entry, looked up): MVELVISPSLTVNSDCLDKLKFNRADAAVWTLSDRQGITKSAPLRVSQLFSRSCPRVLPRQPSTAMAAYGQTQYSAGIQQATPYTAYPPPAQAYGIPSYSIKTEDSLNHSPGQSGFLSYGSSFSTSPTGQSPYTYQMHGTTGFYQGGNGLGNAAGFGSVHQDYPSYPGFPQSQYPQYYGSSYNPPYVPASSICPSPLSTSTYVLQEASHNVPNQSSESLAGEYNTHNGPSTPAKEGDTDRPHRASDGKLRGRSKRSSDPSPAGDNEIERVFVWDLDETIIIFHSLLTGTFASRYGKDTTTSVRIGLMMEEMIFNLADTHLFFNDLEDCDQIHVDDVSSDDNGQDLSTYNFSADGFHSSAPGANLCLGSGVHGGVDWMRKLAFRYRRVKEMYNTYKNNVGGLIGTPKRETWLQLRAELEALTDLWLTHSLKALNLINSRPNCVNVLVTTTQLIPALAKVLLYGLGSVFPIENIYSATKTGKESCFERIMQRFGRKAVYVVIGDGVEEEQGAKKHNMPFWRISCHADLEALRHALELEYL
Target sequence (Q15475 whole entry, looked up): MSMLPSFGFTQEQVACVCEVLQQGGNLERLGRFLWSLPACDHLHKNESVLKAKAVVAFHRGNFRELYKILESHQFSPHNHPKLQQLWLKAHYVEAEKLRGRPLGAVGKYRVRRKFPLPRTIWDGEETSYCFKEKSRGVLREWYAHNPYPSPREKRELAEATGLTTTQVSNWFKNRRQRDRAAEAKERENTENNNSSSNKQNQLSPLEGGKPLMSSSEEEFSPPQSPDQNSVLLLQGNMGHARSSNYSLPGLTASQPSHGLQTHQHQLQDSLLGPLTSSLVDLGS
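Six1/Eya2 binding was read as AlphaScreen signal after compounds were pinned into GST-Six1 plus His-tagged Eya2 (5X stock 250/500 nM) in pH 8.0 Tris/NaCl/TCEP buffer, beads added, then incubated 1 h, 37 C, dark.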
gsp antag = gsp mutant antagonism; Potency, µM (top dose mostly 76.9 µM), for the others: at the top dose activity change, negative = inhibition, most hits filed as inhibitors; gsp-mutant cells, cAMP HTRF, 30 min; control for the full effect not named in the record; 340,000 tested, 0.4% active; active = falling curve of any shape with a large fitted effect; inconclusive = falling curve, mostly with a smaller effect; inactive = flat or rising curve; cell line not stated here;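 note: intracellular cAMP measured with PDE inhibitor Ro 20-1724 present during compound exposure; potency is the fitted concentration of half-maximal effect; % is set by controls: 0 for no effect and ±100 for the full control effect; nearly all actives have a fitted effect of over 65% in size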
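Cells, 2000/well, grown 16–24 h in DMEM 10% FBS with 0.5 mg/ml G418, then compounds plus […] (300 uM addition stock), 30 min at 37C. cAMP read by HTRF (cAMP-d2 and anti-cAMP antibody-K in lysis buffer) after 30 min RT.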
gsp agonist = gsp mutant agonism. gsp mutant cells, cAMP HTRF, 30 min; control for the full effect not named in the record. Potency, µM (titrated, usually from 76.9 µM), for the others: at the top dose activation (cAMP increase), actives largely listed as activators. 340,000 tested, 0.13% active. AID 624287; active = well fitted activation curve with a large enough effect; inconclusive = small, poorly fitted or top-dose-only effect, or another doubt; inactive = no such curve, though single readings can be large or run the other way; cell line not stated here;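 note: phosphodiesterase inhibitor Ro 20-1724 added with compounds to block cAMP breakdown; potency is the fitted concentration of half-maximal effect; nearly all actives have a fitted effect of over 60% in size; about a fifth of the inactives were tested at one dose only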
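Cells in DMEM/10% FBS with G418 were pretreated with compounds in DMSO plus […] (300 uM stock) for 30 min at 37C. cAMP was measured by HTRF (cAMP-d2 plus anti-cAMP antibody-K) after 30 min at room temperature.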
D2 ag = activates the human D2 dopamine receptor; P14416; DiscoveRx PathHunter D2 beta-arrestin, luminescence, 90 min; 100% = 57 uM dopamine signal; activation, % (concentration not given with the values); 360,000 tested, 0.084% active; in the data active = activation above about 40%; inconclusive = about 15% to 40%; inactive = below about 15%; note: compound concentration not given in the record; the text of the record calls up to 30% inactive
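DiscoveRx PathHunter D2 beta-arrestin cells (2,100/well) attached overnight, then compound-stimulated 90 min at 37 C in HBSS/10 mM HEPES/0.1% Tween-20 buffer; beta-galactosidase complementation read by luminescence after 1 h at ambient temperature. Dopamine 57 uM final (EC100) as control.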
D2 potentiator = potentiates the human D2 dopamine receptor allosterically; P14416; DiscoveRx D2 beta-arrestin cells, luminescence, 90 min; 100% = 57 uM dopamine signal; potentiation, % (concentration not given with the values); 360,000 tested, 0.23% active; AID 624464; active = potentiation of 50% or more; inconclusive = 30% to 50%; inactive = 30% or less;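 note: compound concentration not given in the record; tested on top of an EC20 dose of dopamine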
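PathHunter beta-arrestin assay in DiscoveRx D2 cells. Compounds were added with an EC20 of dopamine (50 nM final) for 90 min at 37 deg C. Luminescence was read 1 h after detection reagent, with 57 uM dopamine as the EC100 control.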
Numbers without * were called inactive; ? = inconclusive; . = no result given; & = joins results of further samples; [ ] = another dose, or the depositor's remark.

Order of results – CtBP-E1A blk | Six1-Eya2 blk | gsp antag | gsp agonist | D2 ag | D2 potentiator
- COc1ccc(S(=O)(=O)N2CC(C)N(C(=O)N(C)C)C2C(C)C)cc1 (stereo not drawn)
 : 23 | 11 | 3% | -8%[15.4 µM] | -2.1 | -6
- COc1ccc(OC)c(N=c2oc3cc(O)ccc3cc2C(N)=O)c1
 : -12 | -15 | -2% | 2% | -1.9 | -4
- Cn1cc(CN2CCN(CC(C)(C)C)C(CCO)C2)c2ccccc21 (stereo not drawn)
 : -7 | -3 | 5% | -52%[inhibitor] | 3.7 | -12
- COc1ccc(CSc2nncn2N)cc1[N+](=O)[O-]
 : 11 | -5 | 1% | -14% | -2.2 | 0
- COc1ccc(C(C(O)C(=O)c2c[nH]c3ccccc23)N2CCN(c3ccc(OC)cc3)CC2)cc1 (stereo not drawn)
 : -25 | ? | 4% | 15% | 0.0 | -13
- Cc1ccc(CC(NC(=O)c2ccccc2)C(=O)NC(C)C(=O)O)cc1 (stereo not drawn)
 : 3 | 5 | 11% | 14% | 3.0 | 0
- COc1ccc(C(=O)c2ccccc2)c2c(O)ccc(C(=O)c3ccccc3)c12
 : 4 | -7 | 28µM* | -11% | -5.2 | 1
- Cn1ccc2c(-c3ccc(C(=O)O)cc3)cc3c(c21)C1CCC3O1 (stereo not drawn)
 : 6 | 0 | . | . | -3.5 | 0
- CNC(=O)COc1coc(CN2CCN(c3ccccc3)CC2)cc1=O
 : -21 | -1 | 5% | ? | -4.6 | -19
- O=C(/C=C/c1cnc2ccccc2n1)NC1CCCCCC1
 : -18 | -5 | 11% | 22%[15.4 µM] | -2.5 | 15
- CCOC(=O)c1c(C)oc2ccc(OCc3cc(C(=O)OC)oc3C)cc12
 : 19 | 9 | -14% | 21% | -0.5 | 10
- COC(=O)c1cccc(Nc2cc(C)nc(-c3ccccc3O)n2)c1
 : ? | -29 | ? | 1% | -2.9 | -1
- COc1ccc(N2C(=O)CSC2c2cccc(OC)c2OC)cc1 (stereo not drawn)
 : 13 | 3 | 3% | -78%[inhibitor] | -2.8 | -8
- O=C(CNC(=O)c1ccncc1)N/N=C/c1cccc([N+](=O)[O-])c1
 : 0 | -2 | -9% | 22% | 2.2 | -8
- COc1ccc(C(=O)OCC(=O)c2ccc[nH]2)cc1
 : -13 | 9 | -6% | 4% | -4.0 | -1
- O=C(Nc1ccccc1C(=O)Nc1ccncc1)c1ccc([N+](=O)[O-])cc1
 : 1 | -18 | -26% | 5% | 4.0 | 13
- O=C(COC(=O)CNC(=O)c1ccc(Cl)c([N+](=O)[O-])c1)NCC1CCCO1 (stereo not drawn)
 : . | 0 | -12% | -24% | 2.0 | 2
- Cc1c(C(=O)NCc2cccc(C(F)(F)F)c2)sc(=O)n1Cc1ccc(S(=O)(=O)N(C)C)cc1
 : 3 | -11 | . | . | 8.4 | 2
- COc1ccc(C(=O)c2ccc(OC)cc2OC)cc1
 : 7 | 2 | 10% | -38%[inhibitor] | 3.9 | 1
- CCOC(=O)c1sc2nc(C)c([N+](=O)[O-])c(COC)c2c1N
 : -6 | -13 | -7% | -42%[inhibitor] | -0.5 | -3
- CCCn1c(SCC(=O)Nc2c(C)cccc2C)nnc1C(C)C
 : 2 | 20 | 5% | -2% | -5.0 | -6
- CCN(CC)S(=O)(=O)c1ccc(NC(=S)NC(=O)CC(C)C)cc1
 : 16 | 0 | -2% | -34%[inhibitor] | -0.8 | -15
- CC1(C)CC(=O)C(CC(=O)c2ccccc2)=C(NN=C(N)N)C1
 : 1 | -1 | . | -22% | -5.0 | -6
- CCOC(=O)N1CCN(CCC(=O)Nc2ccccc2)CC1
 : 13 | -16 | 1% | -12%[15.4 µM] | -0.3 | -2
- COc1ccc(CC(=O)Nc2cccc(-c3ccc4nncn4n3)c2)cc1OC
 : -5 | -11 | -9% | -3%[15.4 µM] | -1.7 | 0
- CCOC(=O)c1cnn(-c2ccccc2)c1-n1cccc1C(=O)C(=O)N(CC)CC
 : . | 1 | -5% | -9% | -4.1 | -10
- CCN(C[C@H]1N[C@@](CC)(C(=O)OC)[C@H]2C(=O)N(C)C(=O)[C@@H]12)C(=O)COc1ccccc1
 : 9 | 4 | 5% | . | -3.4 | -4
- O=C(NCc1ccccn1)c1c(Cl)cccc1Cl
 : 0 | 0 | 9%[15.4 µM] | -35% | -11 | -1
- O=C(c1ccccc1)N1CCN(C(=O)c2ccncc2)CC1
 : -16 | 5 | 7% | 1% | -1.3 | 7
- COc1ccccc1Cc1c(-c2ccco2)nc2ccc(C)cn12
 : ? | -22 | . | . | -6.3 | -14

Quoted at random: five entries already listed
Order of results – CtBP-E1A blk | Six1-Eya2 blk | gsp antag | gsp agonist | D2 ag | D2 potentiator
- COc1ccc(OC)c(N=c2oc3cc(O)ccc3cc2C(N)=O)c1
 : -12 | -15 | -2% | 2% | -1.9 | -4
- COc1ccc(CC(=O)Nc2cccc(-c3ccc4nncn4n3)c2)cc1OC
 : -5 | -11 | -9% | -3%[15.4 µM] | -1.7 | 0
- CCN(CC)S(=O)(=O)c1ccc(NC(=S)NC(=O)CC(C)C)cc1
 : 16 | 0 | -2% | -34%[inhibitor] | -0.8 | -15
- O=C(CNC(=O)c1ccncc1)N/N=C/c1cccc([N+](=O)[O-])c1
 : 0 | -2 | -9% | 22% | 2.2 | -8
- O=C(c1ccccc1)N1CCN(C(=O)c2ccncc2)CC1
 : -16 | 5 | 7% | 1% | -1.3 | 7

(next part)
Order of results – CtBP-E1A blk | Six1-Eya2 blk | gsp antag | gsp agonist | D2 ag | D2 potentiator
- COC(=O)c1ccccc1NC(=O)Nc1nnc(N2CCC(C)CC2)s1
 : 4 | 0 | -5% | ? | -1.9 | 0
- N#CC1CC(c2ccccc2)Nc2cc(Cl)ccc2N1 (stereo not drawn)
 : . | 5 | 1% | 21% | 11 | -34
- Cc1ccc(NC(=O)Nc2ccc(S(N)(=O)=O)cc2)cc1
 : 0 | -5 | 6% | -10%[15.4 µM] | 2.6 | -8
- CN(Cc1cccc(C(F)(F)F)c1)C(=O)[C@H]1O[C@@H](n2ccc(N)nc2=O)[C@H](O)[C@@H]1O
 : 3 | -5 | . | . | -5.6 | -4
- COc1ccc(OC)c(S(=O)(=O)n2ccnc2C(C)C)c1
 : -2 | 9 | -11% | -7%[15.4 µM] | 3.2 | -3
- CC(=C/c1ccccc1)/C=N/NC(=O)c1cc(C)oc1C
 : 3 | -4 | -8% | -11% | -7.3 | -32
- CCCCCC(=O)N1CCN(CCN=CC2=C(O)CC(c3cccs3)CC2=O)CC1 (stereo not drawn)
 : 5&1 | -1&-1 | 1%&-18% | ? | 2.1&-0.4 | -4&1
- CCOC1=C2[C@@H](CN(S(=O)(=O)c3ccccc3C)[C@H]2c2ccc(Cl)cc2)[C@H]2C(=O)NC(=O)[C@H]2C1
 : -4 | -6 | . | . | -8.3 | -1
- COc1ccccc1/C=C/C(=O)OC(C)CN1CCCCC1 (stereo not drawn)
 : -2 | 0 | 4% | -11%[15.4 µM] | -1.0 | -13
- Cc1ccc(C)c(N2CCN(C(=O)c3csc4ccccc34)CC2)c1
 : -2 | -1 | -9% | -11% | 0.1 | -15
- O=C(Cn1c(=O)oc2cc(S(=O)(=O)N3CCCC3)ccc21)Nc1ccc(C(F)(F)F)cc1
 : -2 | -1 | -2% | 4% | -0.8 | -15
- COc1ccc(OC)c(Nc2ccc(C(=O)O)cc2[N+](=O)[O-])c1
 : -8 | -8 | ? | 0%[15.4 µM] | -9.1 | -10
- COc1ccc2nc(NC(=O)CCN3C(=O)c4ccccc4C3=O)sc2c1
 : -11 | -15 | 6% | -68%[inhibitor] | -1.9 | -6
- COc1cccc(NS(=O)(=O)c2ccc(C)c(C(=O)N3CCCCC3)c2)c1
 : 4 | 7 | -13% | 26% | -0.9 | -14
- c1ccc(Nc2cccc3ccccc23)cc1
 : 1 | 15 | -12% | 4% | -2.6 | 1
- O=C(OCC(=O)N1CCN(c2ccccc2)CC1)c1ccccc1[N+](=O)[O-]
 : -3 | -5 | 2% | -5% | -3.8 | -16
- CCOCC(=O)N1CCN(Cc2ccc3c(c2)OCO3)CC1
 : 0 | 24 | -20% | -35%[inhibitor] | 5.6 | -2
- Cc1nc2c(Cl)c(C)nn2c2c1CCC2
 : -4 | -12 | 12% | 10% | -2.6 | -5
- Clc1ccc(Cn2ncc3c(N4CCCCC4)ncnc32)c(Cl)c1
 : 8 | 9 | 3% | -34%[inhibitor] | -3.4 | -20
- CCOC(=O)C1(Cc2cccc(OC)c2)CCN(Cc2ccc(C)s2)CC1
 : -19 | -6 | -16% | 7%[15.4 µM] | -1.3 | -23
- Cc1ccc2c(c1)c(CC(=O)Nc1ccc(C)c(F)c1)c(C(=O)O)n2C
 : 10 | -3 | -21% | -5% | -1.1 | 0
- Cc1ccc2oc(=O)cc(CN3CC(C)OC(C)C3)c2c1 (stereo not drawn)
 : . | 4 | -3% | -24% | -6.3 | -7
- CCOC(=O)c1ccc(NNC(=O)CC)c([N+](=O)[O-])c1
 : . | 10 | 7% | ? | -5.1 | -8
- O=C(NNC(=O)c1ccccc1OCc1ccccc1Cl)c1csc(N2CCOCC2)n1
 : -8 | -5 | -17% | ? | 6.5 | -7
- COc1cc(C(=O)NNC(=O)c2cc(-c3ccccc3)n[nH]2)cc(OC)c1C
 : -6 | -16 | 0% | 5%[15.4 µM] | -1.0 | -5
- COc1cc(CNC(=O)c2cc(-c3cc(Cl)ccc3C)n[nH]2)cc(OC)c1
 : -8 | -9 | . | . | -1.1 | -10
- COc1ccc(N/N=C(\C#N)C(=N)N2CCCCC2)cc1
 : . | -5 | -19% | -3% | -6.8 | -18
- O=C(Nc1ccc(F)c([N+](=O)[O-])c1)c1ccc2c(c1)OCCO2
 : -3 | 4 | -14% | 21%[15.4 µM] | -3.0 | -6
- COc1ccc(N(CC(=O)NCc2ccccc2OC)S(=O)(=O)c2ccc(C)cc2)cc1Cl
 : -10 | -15 | -27% | 3% | -6.8 | -8
- CC(C)/C(=N\NC(=O)Nc1ccccc1)c1ccccc1
 : -1 | 1 | 2% | 1% | -5.9 | -14
- CC(=O)c1cccc(NC(=O)CCC(=O)c2ccc(F)cc2)c1
 : 0 | -10 | 3% | -6% | -2.6 | 0
- Cc1cccc(NCc2nc(-c3ccccc3)no2)c1
 : 14 | 6 | 9% | ? | 4.0 | 2
- CCOc1ccc(C(=O)Nc2cccc(C(=O)O)c2C)cc1Cl
 : 5 | 0 | -4% | 12% | -1.6 | -5

Taken from above:
COc1ccc(OC)c(S(=O)(=O)n2ccnc2C(C)C)c1 @ gsp agonist = -7%[15.4 µM]
CCOC(=O)c1ccc(NNC(=O)CC)c([N+](=O)[O-])c1 @ D2 potentiator = -8

Source: PubChem
